# Source: PubChem (Johns Hopkins Ion Channel Center)
# KCNQ2 block: KCNQ2 channel blockers in CHO-K1 cells – cell-based, FluxOR thallium flux, B-score, primary screen (AID 2156); O88943; 20 min; active compounds read low; only compounds with negative scores are shown here; some inactives read as strong as hits; 310,000 tested, 1.1% active; B-score at 10 µM;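 active = fluorescence ratio B-score at most minus 3 library SDs, with starting brightness B-score within 2 library SDs, cut at about -5.5 in these data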
# Target sequence (O88943 whole entry, looked up): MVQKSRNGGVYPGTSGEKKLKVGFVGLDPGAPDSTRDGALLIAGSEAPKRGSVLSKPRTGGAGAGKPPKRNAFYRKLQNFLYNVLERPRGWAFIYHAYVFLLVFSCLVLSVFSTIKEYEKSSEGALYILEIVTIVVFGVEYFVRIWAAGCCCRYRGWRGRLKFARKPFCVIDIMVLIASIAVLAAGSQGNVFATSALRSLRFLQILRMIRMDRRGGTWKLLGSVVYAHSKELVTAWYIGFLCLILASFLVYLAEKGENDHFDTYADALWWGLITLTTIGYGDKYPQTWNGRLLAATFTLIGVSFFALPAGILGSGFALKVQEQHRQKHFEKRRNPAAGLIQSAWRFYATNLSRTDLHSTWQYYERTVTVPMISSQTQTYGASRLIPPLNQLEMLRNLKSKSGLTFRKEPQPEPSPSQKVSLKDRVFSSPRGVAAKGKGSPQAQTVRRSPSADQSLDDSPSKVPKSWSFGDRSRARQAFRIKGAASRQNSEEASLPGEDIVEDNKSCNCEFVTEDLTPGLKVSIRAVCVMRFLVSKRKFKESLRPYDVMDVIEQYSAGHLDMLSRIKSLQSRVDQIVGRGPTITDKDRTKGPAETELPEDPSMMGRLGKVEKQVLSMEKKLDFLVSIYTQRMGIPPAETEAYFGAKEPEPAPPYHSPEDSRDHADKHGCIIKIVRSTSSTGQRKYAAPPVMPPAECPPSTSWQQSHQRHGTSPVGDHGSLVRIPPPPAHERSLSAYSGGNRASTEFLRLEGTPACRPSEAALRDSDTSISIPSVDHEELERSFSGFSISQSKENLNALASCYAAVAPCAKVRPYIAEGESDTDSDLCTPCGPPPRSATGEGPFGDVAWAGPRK
# KCNQ2 block baseline: also measured in KCNQ2 block; calls as there; B-score; measured here: initial fluorescence intensity artifact check;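 brightness before thallium and not channel activity; 0 = typical well and far values either way flag optical interference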
# The depositor's hits bear a star; i = inactive. A portion of the library. The share of hits here may be higher or lower than overall.
compound	KCNQ2 block	KCNQ2 block baseline
CCOc1ccccc1N=C1NC(=O)CS1	i	1.9
Cc1ccccc1C(=O)c1cccn1CC(=O)NCc1ccccc1Cl	i	0.05
COC(=O)CCC(=O)Nc1ccc(S(=O)(=O)N2CCCCCC2)cc1	i	1.8
Cc1cc(C)c2[nH]c(=O)c(C(c3nnnn3CC3CCCO3)N3CCC(C)CC3)cc2c1 (stereo not given)	i	-0.02
CCC(OC(=O)c1nsc(Cl)c1Cl)C(=O)NC(C)(C)CC (stereo not given)	i	-0.36
O=c1[nH]c(SCc2n[nH]c(=S)n2-c2ccccc2)nc2ccccc12	i	0.06
CCN(CC(=O)NCc1ccc(F)cc1)C(=O)c1oc2ccccc2c1C	i	-0.02
Cc1c(C(=O)O)oc2c1C(O)CC(C)(C)C2 (stereo not given)	i	0.98
CC1CCC(NC(=O)CN2C(=O)C3CCCN3c3ncc(Cl)cc32)CC1 (stereo not given)	i	0.02
C(=N\Nc1nc2ccccc2[nH]1)/C1CCCCC1	i	-0.26
O=C1c2[nH]nc(-c3ccccc3O)c2C(c2cccc(Cl)c2)N1Cc1ccco1 (stereo not given)	i	0.36
COC(=O)CCC(=O)OC1(C)C(=O)C2=CN(Cc3ccco3)C(c3ccc(OC)cc3)=CC2=C(Br)C1=O (stereo not given)	i	3.3
CCCCOC(=O)Cn1c2ccc(OC)cc2c2nc3ccccc3nc21	i	-1.3
CCCCN(C(=O)c1ccco1)C1CCS(=O)(=O)C1 (stereo not given)	i	1.2
COc1cc(NC(=S)Nc2cccc(Cl)c2Cl)c(OC)cc1Cl	i	-0.33
CCCN(CCC)C(=O)c1ccc2c(c1)N(Cc1ccccc1)C(=O)CS2=O (stereo not given)	i	0.27
O=C(Nc1ccc(Cl)cn1)C1CCCN1S(=O)(=O)c1cccc2ccccc12 (stereo not given)	i	-1.4
CN(C)C(=S)Nc1ccc(N2CCOCC2)cc1	i	-0.09
CCn1c(C)cc2c(c1=O)C(c1ccc3c(c1)OCO3)C(C#N)=C(N)O2 (stereo not given)	i	-0.39
CCCCN(c1ccccc1)S(=O)(=O)c1ccc2c(c1)CCN2C(=O)CCC(=O)O	i	-1.8
O=C(NCC1CCCO1)c1cc2ccccc2[nH]1 (stereo not given)	i	0.78
COc1ccccc1CNC(=O)Cn1cccc1C(=O)c1ccccc1C	i	-0.31
Cc1cc[n+](CC(=O)c2cccc([N+](=O)[O-])c2)c2ccccc12	i	1.3
Cn1c(=O)c2cc(S(=O)(=O)NCCC(=O)NC3CCCCCC3)ccc2n(C)c1=O	i	0.27

# Full records, quoted from the list.
# `CCn1c(C)cc2c(c1=O)C(c1ccc3c(c1)OCO3)C(C#N)=C(N)O2` (stereo not given) reads KCNQ2 block = i; KCNQ2 block baseline = -0.39
# `COc1cc(NC(=S)Nc2cccc(Cl)c2Cl)c(OC)cc1Cl` reads KCNQ2 block = i; KCNQ2 block baseline = -0.33
# `COc1ccccc1CNC(=O)Cn1cccc1C(=O)c1ccccc1C` reads KCNQ2 block = i; KCNQ2 block baseline = -0.31

# Continuation.
compound	KCNQ2 block	KCNQ2 block baseline
CCc1ccc(/C=N/NC(=O)c2nnn(-c3nonc3N)c2C(C)C)cc1	i	2.9
C=CCn1c(-c2cccc([N+](=O)[O-])c2)n[nH]c1=S	i	-0.02
CN1CCN(CC(C)(C)NS(=O)(=O)c2ccc(Cl)cc2)CC1	i	0.92
O=C(NC1CCN(C(=S)Nc2ccc(F)cc2)CC1)C1CCCCC1	i	-1.2
COc1cc(N=Cc2c(O)c3ccccc3oc2=O)c(OC)cc1Cl	i	1.7
O=C(NCc1ccccn1)c1ccc(Cl)c(S(=O)(=O)N2CCCCCC2)c1	i	-0.84
COc1ccc(S(=O)(=O)N2CCCCC2C(=O)O)cc1 (stereo not given)	i	0.55
CC(OC(=O)c1cccs1)C(=O)NCC1CCCO1 (stereo not given)	i	-0.3
CC(C)(C)NC(=O)CN(C(=O)C1CSC(=O)C1)c1ccccc1F (stereo not given)	i	1.7
O=C(COC(=O)C1=COCCO1)Nc1ccc(F)cc1	i	-0.71
c1ccc(CN2CCCC3(CCCN(Cc4nc(CC5CC5)no4)C3)C2)cc1 (stereo not given)	i	0.51
O=C(c1ccccc1)C(Nc1ccccn1)c1ccccc1 (stereo not given)	i	1.4

# Shown with each value named: 4 of the compounds above
> O=C(NC1CCN(C(=S)Nc2ccc(F)cc2)CC1)C1CCCCC1
  KCNQ2 block = i
  KCNQ2 block baseline = -1.2

> O=C(c1ccccc1)C(Nc1ccccn1)c1ccccc1 (stereo not given)
  KCNQ2 block = i
  KCNQ2 block baseline = 1.4

> CC(OC(=O)c1cccs1)C(=O)NCC1CCCO1 (stereo not given)
  KCNQ2 block = i
  KCNQ2 block baseline = -0.3

> O=C(NCc1ccccn1)c1ccc(Cl)c(S(=O)(=O)N2CCCCCC2)c1
  KCNQ2 block = i
  KCNQ2 block baseline = -0.84

# The listing continues:
compound	KCNQ2 block	KCNQ2 block baseline
COc1ccc(-c2cc3nc4ccccc4n3c(N)c2C#N)cc1	i	-0.32
O=C(NCCc1c[nH]c2ccccc12)c1cccc(Br)c1	i	-0.04
Cc1ccc(NC(=O)C2CC(=O)N(c3ccc4c5c(cccc35)CC4)C2)cc1 (stereo not given)	i	-0.38
Cc1ccc(NC(=O)/C(=C/c2cccs2)NC(=O)c2ccco2)c(C)c1	i	-0.32
O=C1CN(CC(=O)Nc2ccc(Cl)cc2)CCN1	i	-1.8
CCOC(=O)C1=C(C)NC(C)=C(C(=O)OCC)C1c1ccc([N+](=O)[O-])s1	i	-0.56
COc1ccc(C2OC(=O)CC2C(=O)NC2CCCC(C)C2C)cc1OC (stereo not given)	i	1.6
CCOC(=O)c1sc(NC(=O)COc2ccc3c(c2)OCO3)nc1C	i	-0.41
O=C(/C=C/c1ccc(Cl)cc1)NC(=S)Nc1ccc(CN2CCOCC2)cc1	i	-1.9
S=c1[nH]nc(CCCc2n[nH]c(=S)o2)o1	i	2.3
COc1ccc(N(C)C(=O)CCC(=O)Nc2ccc3nc(N4CCOCC4)cc(C)c3c2)c(OC)c1	-7.8*	0.43*
Cc1ccc(NC(=O)c2ccccc2OCC(=O)Nc2cccc(Cl)c2C)nc1	i	2
COc1ccc(CC(NC(C)=O)C(=O)NC2CCN(C(=O)c3ccccc3F)CC2)cc1 (stereo not given)	i	-0.61
COC(=O)c1ccc(CNC(=O)C2CCC(=O)N(CCN3CCOCC3)C2)cc1 (stereo not given)	i	-2
O=C1CN(C(=S)NC(=O)c2ccc(-c3ccccc3)cc2)CCN1	i	1.8
Cc1oc(-c2ccccc2F)nc1CS(=O)(=O)CC(=O)NCCCN1CC(C)CC(C)C1 (stereo not given)	i	-1
C=CCn1c(C2CC2)n[nH]c1=S	i	-0.39
Cc1ccc(-c2[nH]ncc2CN2CCN(C(=O)c3cccs3)CC2)cc1C	i	2.3
CN(C)C(=O)c1cc(C(=O)c2ccc(C(F)(F)F)cc2F)c[nH]1	i	0.43
NC(=O)C1CCN(CC(=O)Nc2nccs2)CC1	i	1.5
Cc1ccc(S(=O)(=O)NC(=NCC(=O)O)c2ccccc2)cc1	i	-1.2
O=C(COC(=O)Cc1ccc(Br)cc1)NC12CC3CC(CC(C3)C1)C2	i	0.53
O=C(CSc1nccc(=O)[nH]1)N1CCCc2ccccc21	i	-0.23
CC(=O)Nc1ccc(S(=O)(=O)Oc2ccc(C(=S)N3CCC(O)CC3)cc2)cc1	i	2.2
CCc1nnc(NC(=O)CSc2nnc(-c3ccccc3OC)n2-c2ccc(C)cc2)s1	i	-1.5
COCCNC(=O)c1c(CSc2ccc(F)cc2)noc1C(=O)NCc1ccccc1	i	-0.48
C=CCc1ccc(OCCOCCN(C)C)c(OC)c1	i	3.6
COc1ccc(C2=NN(C(=O)c3cccs3)C(O)(C(F)(F)F)C2)cc1 (stereo not given)	i	-0.03
Cc1ccc(CSC2=NCCN2C(=O)c2ccco2)cc1	i	0.89
O=C(COC(=O)c1cccc(S(=O)(=O)N2CCOCC2)c1)Nc1nc(-c2ccccc2Cl)cs1	i	-0.06
O=C(CSc1nnc(-c2ccncc2)n1Cc1ccco1)Nc1ccccc1Cl	i	0.09
CCC(NC(=O)Nc1cc(C)on1)(C(F)(F)F)C(F)(F)F	i	-1.1
CCOC(=O)c1c(C)[nH]c(C(=O)OCC(=O)c2ccccc2)c1C	i	0.47
O=C(C1CCC(=O)N(C2CC2)C1)N1CCN(c2cccc(Cl)c2)CC1 (stereo not given)	i	-0.34
O=C(COc1ccc2c(c1)CCC2)N1CCN(c2ccc(F)cc2)CC1	i	2
Cc1ccc(NC(=S)Nc2ccc3[nH]c(=O)[nH]c3c2)cc1C	i	-0.79
COc1cc(OC)cc(C(=O)Nc2ccc(N3CCN(C(=O)c4cccs4)CC3)cc2)c1	i	3
COc1ccccc1C(=O)Nc1ccc2c(c1)C(=O)NC2=O	i	-0.28
Cc1ncc(C23CC4CC(CC(C4)C2)C3)[nH]1	i	0.11
COc1ccc(-c2nn(-c3ccccc3)cc2/C=C(\CC(=O)O)c2nc3ccccc3s2)cc1OC	i	0.01
O=C1Nc2ccccc2C1=O	i	1.2
CCC(C)NS(=O)(=O)c1ccc(NS(C)(=O)=O)cc1 (stereo not given)	i	0.55
CCOC(=O)Cn1c(=O)oc2cc(S(=O)(=O)NCc3ccccn3)ccc21	i	0.5
Cn1c(SCCOc2ccc(F)cc2)nnc1-c1ccncc1	i	0.48
CCOC(=O)c1sc(N)c(C(=O)OC)c1C	i	-0.99
Cc1ccc(S(=O)(=O)NC(CC(=O)O)c2ccccc2)c(C)c1 (stereo not given)	i	2.1
COc1ccc(C2N3CC4(C)CN2CC(C)(C3)C4)cc1OC (stereo not given)	i	-0.29
CCCc1ccc(C(=O)/C=C/N(C)C)cc1	i	0.26

# The results go on:
# The line under a structure holds: KCNQ2 block | KCNQ2 block baseline
> COc1ccc(CNc2nc(-c3cccnc3)nn2C(=O)c2cccs2)cc1
    i | 0.63
> CCn1cc(C2CC(=O)NC2=O)c2ccccc21 (stereo not given)
    i | -0.4
> Cc1cc(C(=O)Nc2ccccc2C)n(-c2ccccc2)n1
    i | -2.2
> COCc1cc(C)nc(OCC(=O)N/N=C/c2ccc(C)o2)c1C#N
    i | 3.2
> CCCCOC(=O)Cn1cnc2ccc(Br)cc2c1=O
    i | 2.4
> CCCN(CCC)Cc1cc(=O)oc2cc3c(cc12)CCC3
    i | 0.15
> COC(=O)c1c(NC(=O)c2nc3ccccc3s2)sc2c1CC(C)(C)NC2(C)C
    i | -1.4
> COC(=O)C1(C(F)(F)F)C2C=CC(C2)N1S(=O)(=O)c1ccc(C)cc1 (stereo not given)
    i | -1.2
> O=C1CC(c2ccc3c(c2)OCO3)Sc2nc3ccccc3n21 (stereo not given)
    i | 1.5
> CCOC(=O)C1CCN(S(=O)(=O)c2ccc(C)cc2)CC1
    i | 0.67
> O=C(c1cn(-c2ccccc2)nc1-c1cccs1)N(CCO)Cc1ccccc1
    -7.5* | -1.1*
> CSc1nc(N2CCCC2)c2c(c1C#N)CC(C)(C)OC2
    i | 0.21
> O=C(NCC1CCCN1S(=O)(=O)c1cccs1)c1cccc(Cl)c1 (stereo not given)
    i | 0.57
> Cc1nc(SCc2ccccc2)c2ccsc2n1
    i | -0.03
> CC1=Nc2ccc(C)c3nc(C)cc(c23)N1c1ccc(C)cc1
    i | -0.15
> Cc1c(NC(=S)NC(NC(=O)C(C)(C)C)C(Cl)(Cl)Cl)c(=O)n(-c2ccccc2)n1C (stereo not given)
    i | -1.3
> O=S(=O)(NCc1ccc(F)cc1)c1ccc(-c2cnc(C3CC3)o2)cc1
    i | 1.3
> Cc1[nH]nc(N=CC2=C(O)CC(C)(C)CC2=O)c1-c1ccc(Cl)cc1
    i | -0.84
> COc1ccccc1C(CCN(Cc1cccs1)C(C)=O)c1ccco1 (stereo not given)
    i | 0.03
> CC(C)c1ccc(N2C(=O)/C(=C/N(C)C)SC2=S)cc1
    i | -1.2
> CCn1c(CC(=O)Nc2ccc(C)cc2)nnc1SCC(=O)NCc1ccccc1
    i | -1.3
> CCOc1ccc(OCC)c(-c2c(=O)n(OCc3ccc(Cl)cc3)c3ccccc3[n+]2[O-])c1
    i | -0.22
> CCc1ccc(OCc2nnc(SCC(=O)Nc3cccc(C(=O)N4CCOCC4)c3)o2)cc1
    i | 0.83
> CC(C)CC(=O)NC(=S)Nc1ccc(F)cc1F
    i | -0.9
> COc1ccccc1OCC(=O)Nc1ccc(S(=O)(=O)N2CCCCCC2)cc1
    i | -1.5
> CC1CCCC(C)N1C(=O)Cn1cc(/C=C2/C(=O)Nc3ccccc32)c2ccccc21 (stereo not given)
    i | -2.6
> C/C(=N\Nc1cccc2cccnc12)c1ccc(C)cc1
    i | -1.1
> O=C(NCCOc1ccccc1)c1cc2ccccc2o1
    i | -0.53
> O=C(COc1ccccc1)n1nc(-c2ccc(Cl)cc2)nc1NCc1ccco1
    i | -0.24
> CCOC(=O)N1CCN(CC(=O)Nc2ccc(F)c(F)c2)CC1
    i | 2
> COc1ccccc1OCCCOc1ccc([N+](=O)[O-])cc1Cl
    i | 1.7
> CCO/N=C(\C)c1c(O)cc(C(C)C)n(-c2ccccc2)c1=O
    i | 1.1
> COc1ccc(OC)c(NC(=O)Cc2coc3ccc(C)cc23)c1
    i | 1.3
> CN1CCN(c2ccc(NC(=O)c3ccc4ccccc4c3)cc2)CC1
    i | 2
> O=C(NCCc1ccccc1)C1CCCN(S(=O)(=O)c2cccnc2)C1 (stereo not given)
    i | 0.19
> Cn1ncc(N=Cc2ccc([N+](=O)[O-])cc2)c1C(=O)N1CCOCC1
    i | -0.8
> O=C(NCCc1ccc(F)cc1)c1cccc(NC(=O)c2ccccc2)c1
    i | -1.6
> COc1ccc(/C=C/C(=O)Nc2cc(C)on2)cc1
    i | 1.6
> CCCc1cc(=O)oc2cc(OCC(=O)NCc3ccccn3)ccc12
    i | 0.3
> O=C(CSCCOc1ccccc1)NCc1ccncc1
    i | 1.9
